# Screening data: PubChem, National Center for Advancing Translational Sciences (NCATS)
# PINK1 expr mod: modulators of PINK1 expression | PINK1 immunofluorescence, high-content cytometry, 24 h | Potency, µM (top dose mostly 76.6 µM), for the others: top-dose activation (PINK1 increase), hits mostly activators | hit rate 0.2% among 410,000 | AID 624263; active = well fitted activation curve with a large enough effect; inconclusive = small, poorly fitted or top-dose-only effect; inactive = flat fitted curve, though single readings scatter; cell line not stated here;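 also: potency is read from the fitted curve at half-maximal effect; % of control where 0% means no effect; nearly all actives have a fitted effect of over 65% in size; a mitochondrial uncoupler was the plate control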
#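 Readout is PINK1 immunofluorescence, quantified alongside mitochondrial, cell and nuclear markers by laser-scanning microplate cytometry. Cells from a stable line were exposed to compound titrations (5 concentrations) for 24 hours, with CCCP controls.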
# TRPML1 ag: agonists of human TRPML1 channel; Q9GZU1; TRPML1-expressing cells, Ca2+ dye fluorescence, FDSS; host cell line not named in the record; reference of the full effect not given here; activation, % (concentration not given with the values); hit rate 0.12% among 410,000; in the data active = activation above about 50%; inconclusive = about 30% to 50%; inactive = below about 30%; also: 0% is about no effect; the text of the record puts the active cut at 80%
#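 TRPML1-DL cells, Tet-induced overnight (~16 h, 37 degrees C), loaded 45-90 min at room temperature with Ca8 no-wash calcium dye plus quencher. FDSS fluorescence: 10 s baseline, compound pin-transfer, 110 s agonist read, then EC80 54-4 (4uM final) and 110 s antagonist read.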
# D2 agonist: activates the human D2 dopamine receptor; P14416; DiscoveRx PathHunter D2 beta-arrestin, luminescence, 90 min; 100% = 57 uM dopamine signal; activation, % (concentration not given with the values); hit rate 0.084% among 360,000; in the data active = activation above about 40%; inconclusive = about 15% to 40%; inactive = below about 15%; also: compound concentration not given in the record; the text of the record calls up to 30% inactive
#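 Agonist mode: compounds alone added to overnight-plated D2 PathHunter cells for 90 min at 37 C, with 57 uM final dopamine (EC100) defining full response. Beta-arrestin recruitment detected by chemiluminescent reagent, read after 1 h at ambient temperature.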
# Six1-Eya2 blk: Six1/Eya2 interaction inhibition. AlphaScreen GST-Six1/His-Eya2 binding, biochemical; stronger effect = lower value; control for the full effect not named in the record. activity change, % (concentration not given with the values). hit rate 0.56% among 360,000; in the data active = activity change below about -65%; inconclusive = about -30% to -65%; inactive = above about -30%; also: % is scaled to controls: 0 for no effect and ±100 for the full control effect
# Target sequence (O00167 whole entry, looked up): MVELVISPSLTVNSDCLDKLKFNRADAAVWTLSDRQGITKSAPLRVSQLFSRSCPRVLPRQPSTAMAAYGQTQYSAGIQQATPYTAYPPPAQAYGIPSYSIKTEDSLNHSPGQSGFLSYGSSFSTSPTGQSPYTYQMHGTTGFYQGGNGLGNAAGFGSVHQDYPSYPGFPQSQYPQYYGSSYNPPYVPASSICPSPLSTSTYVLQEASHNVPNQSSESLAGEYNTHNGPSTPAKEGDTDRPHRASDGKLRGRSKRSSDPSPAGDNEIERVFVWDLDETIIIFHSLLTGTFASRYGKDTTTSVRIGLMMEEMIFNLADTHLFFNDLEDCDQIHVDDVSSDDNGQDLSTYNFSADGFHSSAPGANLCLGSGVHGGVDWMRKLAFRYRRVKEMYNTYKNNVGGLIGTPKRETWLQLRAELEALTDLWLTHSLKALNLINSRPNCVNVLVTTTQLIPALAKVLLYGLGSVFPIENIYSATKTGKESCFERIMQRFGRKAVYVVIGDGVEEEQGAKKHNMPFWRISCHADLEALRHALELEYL
# Target sequence (Q15475 whole entry, looked up): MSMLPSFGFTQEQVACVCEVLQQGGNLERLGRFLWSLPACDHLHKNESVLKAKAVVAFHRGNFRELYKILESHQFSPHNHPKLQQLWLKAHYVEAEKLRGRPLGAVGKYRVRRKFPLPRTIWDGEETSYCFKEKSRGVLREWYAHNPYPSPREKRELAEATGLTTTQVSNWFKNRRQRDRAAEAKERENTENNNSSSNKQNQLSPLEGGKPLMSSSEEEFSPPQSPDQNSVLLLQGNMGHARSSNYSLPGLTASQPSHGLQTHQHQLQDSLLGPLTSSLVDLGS
#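 Six1/Eya2 binding was read as AlphaScreen signal after compounds were pinned into GST-Six1 plus His-tagged Eya2 (5X stock 250/500 nM) in pH 8.0 Tris/NaCl/TCEP buffer, beads added, then incubated 1 h, 37 C, dark.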
# TRPML1 blocker: blocks the human TRPML1 channel | hit rate 0.02% among 390,000 | TRPML1-inducible cells, Ca2+ dye fluorescence, FDSS; stronger effect = lower value; inhibition of EC80 agonist-evoked calcium signal | activity change, negative = inhibition, % (concentration not given with the values) | Q9GZU1 | AID 624415; in the data active means activity change below about -50%; inconclusive means about -30% to -50%; inactive means above about -30%;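 also: stimulus is agonist 54-4 at its EC80 concentration; % is scaled to controls: 0 for no effect and ±100 for the full control effect; compound concentration not given in the record; the text of the record puts the active cut at -80%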
#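 Calcium fluorescence in TRPML1-DL cells induced overnight with Tet: a 110 s read after compound pin addition, then a 110 s antagonist read after challenge with 54-4 at 4 uM final (EC80).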
# D2 potentiator: potentiates the human D2 dopamine receptor allosterically; potentiation, % (test concentration not listed); hit rate 0.23% among 360,000; DiscoveRx D2 beta-arrestin cells, luminescence, 90 min; 100% = 57 uM dopamine signal; active = potentiation of 50% or more; inconclusive = 30% to 50%; inactive = 30% or less;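 also: compound concentration not given in the record; tested on top of an EC20 dose of dopamine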
#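 D2 cells co-treated with compound plus 50 nM dopamine (EC20) for 90 min at 37 deg C to detect potentiation. Beta-arrestin recruitment was read as enzyme-fragment luminescence after 1 h at ambient temperature. Full response was set by 57 uM dopamine.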
# Active calls of the source: *; ? = inconclusive; / = no result given; & = joins results of further samples; [ ] = another dose, or the depositor's remark. The order is random; 1% or so of the library scored in one or more.
SMILES,PINK1 expr mod,TRPML1 ag,D2 agonist,Six1-Eya2 blk,TRPML1 blocker,D2 potentiator
CCOC(=O)CSc1nc2sc3c(c2c(=O)n1Cc1ccccc1)CC(C(C)C)OC3 (configuration not stated),-1.1%,0.7,/,/,7,/
O=C(Oc1ccc(N2C(=O)C3C4CCC(C4)C3C2=O)cc1)c1ccco1 (configuration not stated),-0.6%,0.3,-0.3,-26,0,-6
CCCNC(=O)C1(C)CCCN(C(=O)c2cccc(C#N)c2)C1 (configuration not stated),-0.2%,-0.4,-1.2,3,-6,-15
CCCN(CCC)C(C(=O)Nc1cccc(OC)c1)c1ccccc1 (configuration not stated),-2.8%[38.3 µM],0.6,-3.1,2,13,-13
O=C(C1CCCO1)N(c1cccc(Cl)c1)C1C=CS(=O)(=O)C1 (configuration not stated),/,0.5,-0.1,8,-4,1
Cc1ccc(C)c(NC(=O)CSc2nc(-c3ccccc3Cl)nc3c2Cc2c(CO)cnc(C)c2O3)c1,1.6%,1.6,/,/,-2,/
CC(=O)N1CCN(C(=O)c2ccccc2NS(=O)(=O)c2ccc(F)cc2)CC1,-0.3%,0.1,5.9,2,5,-2
O=C(Nc1ccc2c(c1)OCO2)c1ccc(Cl)cc1Cl,-0.3%,1.4,2.1,3,-9,-17
COc1ccc(-n2c(Cc3cccn3C)nnc2SCC(=O)N2CCCC2)cc1,-1.0%,1.0,-0.9,-9,-7,-4
NC(=O)c1c(NC(=O)c2cccnc2)sc2c1CCCCC2,5.9%,/,-0.4,-3,/,-10
Cc1cc2c(cc1C)C(=O)CCC2,0.0%,-0.6,-4.8,-1,24,-11
Cc1cc(C)nc(NC(=O)c2ccc(OC(C)C)cc2)n1,0.6%,-0.4,-1.7,7,-8,-11
CCn1ncc(Br)c1C(=O)NC1CCCCCCC1,2.1%,0.9,0.3,7,-2,-5
Cc1ccc([C@H]2C[C@@H](O)[C@H](n3cc(-c4ccc(F)cc4)nn3)CN2C(=O)c2cccs2)cc1,-1.6%,4.9,-3.4,-6,21,-3
CSCCCNC(=S)N1CCN(c2ccc(C(C)=O)cc2)CC1,0.0%,0.4,-1.3,-15,15,12
CCCC(C)C(=O)Nc1ccc(S(=O)(=O)Nc2nccs2)cc1 (configuration not stated),0.1%,-0.2,-1.9,0,-5,2
Cc1ccc(C)c(N2CCN(CCCNC(=O)c3cnn(-c4cccc(Cl)c4)c3C3CCN(C(=O)OC(C)(C)C)CC3)CC2)c1,-0.1%,3.4,/,/,-9,/
Cc1[nH]c2ccccc2c1Cc1nnc(SCC(=O)NCc2ccco2)o1,-0.4%,0.4,4.0,-7,7,2
CC(C)=C(NC(=O)c1ccccc1)C(N)=O,-0.7%,-0.7,-5.8,6,6,-15
Cc1ccccc1OCC(O)Cn1c(Br)nc2c1c(=O)[nH]c(=O)n2C (configuration not stated),2.1%,1.7,4.9,7,-13,-4
O=C(NC(=S)Nc1ccc(N2CCCC2)cc1)c1ccc(F)cc1,7.1%,-0.3,8.7,-8,-6,-11
S=C(Nc1ccc2nccnc2c1)N1CCOCC1,0.3%,-0.2,-1.8,5,15,-8
CCN(CC)S(=O)(=O)c1cc(NC(=O)c2n[nH]c(=O)c3ccccc23)ccc1C,2.9%,3.6,-18,-4,-16,-5
O=C(CNS(=O)(=O)c1ccc(Cl)cc1)N1CCN(c2ccc(F)cc2)CC1,1.2%,0.0,-2.1,1,3,0
O=C(NC1CCCC1)C1c2ccccc2OCC(=O)N1Cc1cccnc1 (configuration not stated),-0.2%,-0.3,/,16,/,/
FC(F)(F)c1nnc(-c2ccccc2)nc1N1CCCC1,2.3%,0.0,2.1,3,-2,-8
CCOC(=O)c1csc(NC(=O)c2cc(OC)c(OC)c(OC)c2)n1,2.3%,1.4,-5.0,2,-17,2
COc1ccc(-c2nnc(SC(C)C(=O)Nc3ccc4c(c3)OCCO4)o2)cc1 (configuration not stated),1.0%[38.3 µM],3.1,0.8,6,-9,-10
O=C(COC(=O)c1cc(-c2cccs2)nn1-c1ccccc1)Nc1cccc([N+](=O)[O-])c1,1.9%,-0.4,4.1,-19,-1,-8
COc1cc(Br)cc2cc(C(=O)N3CCCCC3C)c(=O)oc12 (configuration not stated),0.8%,-0.1,-3.4,-2,-3,-4

# Fetched by structure from the list above:
SMILES,PINK1 expr mod,TRPML1 ag,D2 agonist,Six1-Eya2 blk,TRPML1 blocker,D2 potentiator
O=C(COC(=O)c1cc(-c2cccs2)nn1-c1ccccc1)Nc1cccc([N+](=O)[O-])c1,1.9%,-0.4,4.1,-19,-1,-8
Cc1ccc([C@H]2C[C@@H](O)[C@H](n3cc(-c4ccc(F)cc4)nn3)CN2C(=O)c2cccs2)cc1,-1.6%,4.9,-3.4,-6,21,-3
CCOC(=O)c1csc(NC(=O)c2cc(OC)c(OC)c(OC)c2)n1,2.3%,1.4,-5.0,2,-17,2
COc1ccc(-n2c(Cc3cccn3C)nnc2SCC(=O)N2CCCC2)cc1,-1.0%,1.0,-0.9,-9,-7,-4
CC(=O)N1CCN(C(=O)c2ccccc2NS(=O)(=O)c2ccc(F)cc2)CC1,-0.3%,0.1,5.9,2,5,-2

# Carrying on.
SMILES,PINK1 expr mod,TRPML1 ag,D2 agonist,Six1-Eya2 blk,TRPML1 blocker,D2 potentiator
O=C(Nc1ccccc1)OCN1C(=O)c2ccccc2C1=O,2.4%,-0.1,-1.5,9,-4,-13
CCOc1ncccc1C(=O)OCC(=O)N1CCN(S(=O)(=O)c2ccc(Cl)cc2)CC1,-4.3%,0.3,-1.9,0,-2,-2
CC(C)(C)c1cccc(Cn2nnc3ccccc32)c1O,?,0.3,1.7,3,-8,-41
O=C1CC(c2ccccc2)CN1C(=O)c1cncc(Br)c1 (configuration not stated),2.1%,-0.8,-3.8,3,5,-5
C=CCN(c1ccccc1)S(=O)(=O)c1ccc(Cl)c(C(=O)OCC(=O)NCCCN2CCCC2=O)c1,0.8%,0.6,6.0,1,5,-2
N=c1oc2ccccc2cc1C(=O)NC1CCCCCC1,3.0%,-0.8,-0.7,-15,3,-15
COc1cc(NC(=O)NCCn2nnc3cc(S(=O)(=O)N(C)C)ccc32)cc(OC)c1OC,1.6%,-1.0,/,/,-6,/
COc1cc(NC(=O)CCCl)cc(-n2cnnn2)c1,-0.1%,-0.3,-4.9,18,7,-2
COC(=O)c1cc(S(=O)(=O)NCC2CCN(Cc3ccc(Cl)cc3)CC2)c[nH]1,0.4%,-0.8,-1.6,-2,-7,-24
CCOc1ccccc1-c1cc(-c2ccc(OC)cc2)nc2c1c(=O)n(C)c(=O)n2C,9.7%,-0.8,-3.6,6,30,-6
COc1ccc([C@H]2CC(=O)C=C(c3cc(Cl)cc(Cl)c3)C2)cc1,1.2%,1.4,-1.2,-2,3,-9
Cc1ccc(S(=O)(=O)CCN2C=CC(C(F)(F)F)=NCC2)cc1,-1.5%,0.4,-3.0,0,42,-6
CN1C(=S)N2CCCN2C1c1ccccc1 (configuration not stated),-3.1%,0.6,-0.4,7,23,0
Cc1c(NC2=NC(C)(C)Cc3ccccc32)c(=O)n(-c2ccccc2)n1C,1.1%,-0.4,-1.1,5,3,-11
Cc1c(C(=O)OCC(=O)NCCc2ccc(S(N)(=O)=O)cc2)oc2ccccc12,4.7%,-0.8,-4.7,0,-10,-13
Cc1ccc(-c2noc(C3CCCCC3)n2)cc1,-0.1%,0.1,0.9,16,-6,-7
COc1ccc(/C=C/C(=O)NCCOc2ccccc2OC)cc1,1.7%,-0.3,-0.5,-17,10,-12
COc1ccc(CCNC(=O)C2(C)CCC(=O)N2Cc2ccc(C)cc2)cc1OC (configuration not stated),0.2%,0.1,1.8,2,-5,-6
C(=N\Nc1ccc2ccccc2n1)/c1ccc2c(c1)OCO2,0.6%,2.5,-4.1,1,1,-7
Cc1ccc(C)c(C(=O)c2ccccc2NC(=O)c2ccccn2)c1,8.6%,1.0,1.0,8,16,-2
COc1ccccc1OCCn1cc(/C=C(\C#N)C(=O)NCc2cccs2)c2ccccc21,1.9%,1.4,-0.2,7,-4,-1
COc1ccccc1S(=O)(=O)N(C)C[C@@H]1Oc2ncc(-c3ccc(C)cc3)cc2C(=O)N([C@H](C)CO)C[C@@H]1C,0.2%,0.0,-8.0,-8,3,-5
CC(C)CN(CC(C)C)C(=O)CN1C(=O)NC2(CCCc3ccccc32)C1=O (configuration not stated),-0.7%,-0.1,0.8,-4,-2,-5
CC(=O)c1sc(Nc2nc(C)cc(C)n2)nc1C,0.9%,0.9,0.1,8,32,1
Cc1ccc(-n2nnc(-c3cnc4ccccc4c3)n2)cc1,0.6%,-0.7,-4.5,-1,-9,-44
O=C(O)c1cc(S(=O)(=O)N2CCN(S(=O)(=O)c3ccccc3)CC2)ccc1Cl,-2.7%,1.8,0.6,6,4,-3
CCN(CC)S(=O)(=O)c1nnc(NC(=O)COc2ccccc2F)s1,-0.4%,0.0,/,/,-13,/
CC1CCCCN1CCCNC(=O)c1c(O)nc2ccccn2c1=O (configuration not stated),1.6%,-0.4,-1.6,4,-11,4
CC1(C)Cc2c(sc3nc(SCC(=O)O)[nH]c(=O)c23)CO1,3.6%[38.3 µM],0.4,-3.4,6,8,-1
COc1ccccc1C=NC(CO)C(O)c1ccc([N+](=O)[O-])cc1 (configuration not stated),3.0%,0.4,-1.5,-6,6,21
Nc1cc(S(=O)(=O)Nc2ccccc2Cl)ccc1N1CCOCC1,1.6%,-0.6,-1.7,2,3,-1
Cc1ccccc1CN(C)C(=O)CNC(=O)c1ccc2ccccc2c1,-0.4%,-0.8,0.4,0,0,-6
O=C1CCc2cc(NS(=O)(=O)c3ccccc3)cc3c2N1CC3,5.9%,0.0,-1.7,-8,-7,14
O=c1c2ccccc2c(C=Nc2cccc(O)c2)c(O)n1-c1ccc2c(c1)OCO2,13%,-1.3,-0.1,-11,26,13
Cc1cc(C)cc(NC(=O)CN2C(=O)c3ccccc3C2=O)c1,1.9%,-1.4,-1.3,-20,52,1
CCOC(=O)C1CCN(Cc2c(C(=O)N3CCOCC3)nc3c(C)cccn23)CC1,-0.6%,0.0,-1.2,1,0,-19
COC(=O)C1=C(O)/C(=C\c2ccc(OCC(=O)Nc3ccccc3)cc2)N=C1C,-2.0%,0.2,-2.0,-4,-8,-14
COc1ccccc1Nc1ncc(C(C)=O)c(C)n1,-1.0%,-0.8,1.2,3,-5,9
Cc1nc(C(F)(F)F)ccc1C(=O)N1CCC1(C)C(=O)NS(=O)(=O)c1cccc(Cl)c1 (configuration not stated),1.2%,0.2,2.1,4,/,-3
CC1CCCCC1NC(=O)Cn1cccc1C(=O)c1ccccc1 (configuration not stated),-0.5%,-0.9,-5.1,-7,9,-9
CCCN(CCC)C(=O)c1cc2c(=O)n3cccc(C)c3nc2s1,5.8%&-0.6%,-0.7&2.3,-4.4,9,-12&-3,1
c1cnc(NC2C3CC4CC(C3)CC2C4)nc1 (configuration not stated),0.8%[38.3 µM],-0.8,-2.1,5,4,-3
CCCNC(=O)c1ccc(-n2c(-c3ccccc3)cc3c2CCC(C)C3)cc1 (configuration not stated),-0.1%,0.8,/,/,10,/
